Assay outcomes (PubChem)
gsp ag – gsp mutant agonism | gsp mutant cells, cAMP HTRF, 30 min; control for the full effect not named in the record | Potency, µM (series often up to 76.9 µM), without a hit: at the top dose activation (cAMP increase), actives largely listed as activators | 340,000 compounds, 0.13% hits | AID 624287; active = well fitted activation curve with a large enough effect; inconclusive = small, poorly fitted or top-dose-only effect, or another doubt; inactive = no such curve, though single readings can be large or run the other way; cell line not stated here;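 also: phosphodiesterase inhibitor Ro 20-1724 added with compounds to block cAMP breakdown; potency is read from the fitted curve at half-maximal effect; nearly all actives have a fitted effect of over 60% in size; about a fifth of the inactives were tested at one dose only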
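Cells stably selected in G418 were plated at 2000/well, grown 16-24 hr, then given compounds in DMSO with the PDE inhibitor […] (300 uM solution added) for 30 min at 37C; cAMP was read by HTRF.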
gsp antag – gsp mutant antagonism; gsp-mutant cells, cAMP HTRF, 30 min; control for the full effect not named in the record; Potency, µM (series often up to 76.9 µM), for the others: top-dose activity change, negative = inhibition, hits mostly inhibitors; 340,000 compounds, 0.4% hits; active = falling curve of any shape with a large fitted effect; inconclusive = falling curve, mostly with a smaller effect; inactive = flat or rising curve; cell line not stated here;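 also: intracellular cAMP measured with PDE inhibitor Ro 20-1724 present during compound exposure; potency is read from the fitted curve at half-maximal effect; % is scaled to controls: 0 for no effect and ±100 for the full control effect; nearly all actives have a fitted effect of over 65% in size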
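Measurement of cellular cAMP by homogeneous time-resolved fluorescence following a 30 min compound exposure at 37C. The PDE inhibitor […] was present throughout; the assay buffer was DPBS with 0.05% BSA and 0.005% Tween 20.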
Menin MLL FP FL – menin-MLL binding inhibition, fluorescein peptide; Fluorescence polarization, fluorescein-MLL peptide displacement from menin; FP activity change, % at 61.4 µM; AID 1766; 290,000 tested, under 10 active; inconclusive = falling polarisation curve, or a change in total fluorescence; inactive = total fluorescence flat and polarisation flat or rising; no compound was filed as active; the % refers to the polarisation; negative = inhibition;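 also: % of control where 0% means no effect; inhibitors lower the polarisation; unlabelled MLL peptide was the positive control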
Sfp inh – inhibitors of Bacillus subtilis Sfp phosphopantetheinyl transferase | 310,000 compounds, 3.5% hits | Potency, µM, without a hit: max response, negative = inhibition, actives largely listed as inhibitors | Q9F4F7 | Biochemical Sfp PPTase activity, qHTS | AID 1490; active = well fitted inhibition curve with a large enough effect; inconclusive = small, poorly fitted or top-dose-only effect, or another doubt; inactive = no such curve, though single readings can be large or run the other way;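 also: the enzyme is Sfp with the accession as filed and its product quenches rhodamine fluorescence; potency is read from the fitted curve at half-maximal effect; 0% = enzyme reaction without inhibitor and -100% = no enzyme wells; top concentration of the series not given in the record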
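Step 1, compound plus 15 nM Sfp-PPTase, 15 min, room temperature. Step 2, add rhodamine-CoA (5 uM) and BHQ-2-YbbR (12.5 uM). Step 3, read 525/598 nm fluorescence at 0 and 30 min.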
ClpP mod – qHTS Assay for Activators of ClpP; Potency, µM (titrated, usually from 57.5 µM), for inactives: at the top dose activity change, negative = active; 340,000 compounds, 1.9% hits; purified B. subtilis ClpP, FRET peptide cleavage, 20 min; ATP-dependent Clp protease proteolytic subunit (Bacillus subtilis (strain 168)), P80244; active = well fitted falling curve with a large enough effect; inconclusive = small, poorly fitted or top-dose-only effect; inactive = no such curve, though single readings can be large or run the other way; also: potency is read from the fitted curve at half-maximal effect; the source files actives as falling curves though it sought activators and does not explain the sign; nearly all actives have a fitted effect of over 65% in size; many hits overshoot -100%
Target sequence (P80244 whole entry, looked up): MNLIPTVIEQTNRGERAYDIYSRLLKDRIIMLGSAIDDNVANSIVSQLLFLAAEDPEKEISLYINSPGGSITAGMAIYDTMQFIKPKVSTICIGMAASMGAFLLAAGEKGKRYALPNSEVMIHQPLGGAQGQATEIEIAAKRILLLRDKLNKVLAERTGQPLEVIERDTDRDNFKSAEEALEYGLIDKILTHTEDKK
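FRET quenching reversal measured ClpP activation: 10 microg/mL B. subtilis ClpP at pH 8 with the FRET-FV decapeptide, read at 430 nm after 320 nm excitation. The 20-min minus 0-min signal was scaled between DMSO/no-enzyme wells and ADEP (5.8 microM final).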
TRPV1 PAM – potentiators of human vanilloid receptor 1 (TRPV1); 320,000 compounds, 0.02% hits; potentiation, % at 8.33 µM; Q8NER1; AID 540277; TRPV1-expressing cells, Fluo-8 calcium influx, capsaicin EC20 potentiation; host cell line not named in the record; control for the full effect not named in the record; active means potentiation above 80%; inconclusive means 30% to 80%; inactive means below 30%; also: 0% is about no effect
Target sequence (Q8NER1 whole entry, looked up): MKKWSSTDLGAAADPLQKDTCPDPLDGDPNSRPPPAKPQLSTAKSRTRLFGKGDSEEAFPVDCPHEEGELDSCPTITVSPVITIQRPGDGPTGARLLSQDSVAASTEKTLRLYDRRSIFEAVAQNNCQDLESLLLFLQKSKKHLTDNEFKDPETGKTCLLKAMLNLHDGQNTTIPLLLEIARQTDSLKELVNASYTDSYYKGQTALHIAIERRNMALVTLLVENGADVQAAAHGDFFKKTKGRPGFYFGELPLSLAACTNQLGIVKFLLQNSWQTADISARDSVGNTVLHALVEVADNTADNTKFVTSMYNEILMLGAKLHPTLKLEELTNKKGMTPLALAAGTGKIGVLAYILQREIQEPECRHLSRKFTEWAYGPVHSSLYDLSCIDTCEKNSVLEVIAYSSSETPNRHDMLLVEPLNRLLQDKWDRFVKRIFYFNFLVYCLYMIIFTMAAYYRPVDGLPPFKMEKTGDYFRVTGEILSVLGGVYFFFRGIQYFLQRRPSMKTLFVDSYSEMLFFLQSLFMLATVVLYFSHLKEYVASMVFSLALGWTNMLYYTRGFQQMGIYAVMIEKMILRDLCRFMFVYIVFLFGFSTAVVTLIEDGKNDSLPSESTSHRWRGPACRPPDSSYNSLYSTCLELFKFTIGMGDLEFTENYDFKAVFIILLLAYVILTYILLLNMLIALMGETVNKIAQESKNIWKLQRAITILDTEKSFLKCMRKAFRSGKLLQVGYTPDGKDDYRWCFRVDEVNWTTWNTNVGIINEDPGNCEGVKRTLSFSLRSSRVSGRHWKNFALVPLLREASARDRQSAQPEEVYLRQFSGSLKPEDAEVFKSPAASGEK
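Cells expressing TRPV1 were dye-loaded with Fluo-8 and read kinetically: 10 s baseline, 3 min after compound (agonist portion), then 2 min after EC20 capsaicin (allosteric enhancer portion). Calcium-bound dye fluorescence at 480/520 nm.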
CtBP-E1A inh – inhibitors of CtBP/E1A interaction; 340,000 compounds, 0.49% hits; AlphaScreen GST-E1A/His-CtBP binding, 1536-well; stronger effect = lower value; control for the full effect not named in the record; activity change, % (test concentration not listed); in the data active means activity change below about -65%; inconclusive means about -30% to -65%; inactive means above about -30%; also: % is scaled to controls: 0 for no effect and ±100 for the full control effect
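Steps: dispense buffer (Tris pH 8.0, NaCl 300 mM, TCEP 1 mM, BSA, Tween 20); add 5X protein mix (GST-E1A, His-CtBP, 125 nM each); pin 23 nL compound; 2 h at 37 °C, dark; add 5X beads (50 ug/mL); 1 h; read.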
Starred values were filed as active, the others as inactive; ? = inconclusive; / = not tested or not shown; [ ] = dose if it differs, or a comment.

1. CCOc1ccc(S(=O)(=O)N2CCCC(C(=O)NCCN3CCOCC3)C2)cc1Cl (configuration not stated)
2. CC(=O)C(c1ccccc1)C(c1ccccc1)C(C)[N+](=O)[O-] (configuration not stated)
3. Cc1ccc2nc(NC(=O)C3CCCN(S(=O)(=O)c4cccc5nonc45)C3)sc2c1 (configuration not stated)
4. Cc1cc(C)nc(SC(C)C(=O)O)n1 (configuration not stated)
5. CC(CS(=O)(=O)c1cccc2cccnc12)N1CCCCC1 (configuration not stated)
6. CC(C)(C)OC(=O)CNC(=O)c1nc[nH]c1C(=O)NCC(=O)OC(C)(C)C
7. Cc1ccc(S(=O)(=O)N(CC(=O)N/N=C/c2cccc(C)c2)c2cccc3cccnc23)cc1
8. NC(=O)Cn1cc(/C=N\NS(=O)(=O)c2cccc([N+](=O)[O-])c2)c2ccccc21

compound no.	1	2	3	4	5	6	7	8
gsp ag	4.1%[15.4 µM]	1.8%[15.4 µM]	/	?	6.1%	/	14.2%	8.5%[15.4 µM]
gsp antag	4.5%	3.2%	/	9.5%	5.5%	3.4%	-20.8%	-2.7%
Menin MLL FP FL	-2.9	-0.9	13.2	2.8	?	-1.2	-0.2	-9.1
Sfp inh	17.8%	26.9%	0.3%	-1.3%	-7.3%	-1.3%	-4.1%	2.3%
ClpP mod	/	-5.8%	/	-0.2%	-8.7%	1.1%	25.1µM*	-1.3%
TRPV1 PAM	8.4	-36.0	0.8	?	?	21.1	2.4	1.9
CtBP-E1A inh	1.2	-2.5	/	1.3	-4.3	-22.0	-2.7	3.7

3 compounds out of the list above, sorted by their value in gsp antag, low to high.
item | SMILES | gsp ag | gsp antag | Menin MLL FP FL | Sfp inh | CtBP-E1A inh
8 | NC(=O)Cn1cc(/C=N\NS(=O)(=O)c2cccc([N+](=O)[O-])c2)c2ccccc21 | 8.5%[15.4 µM] | -2.7% | -9.1 | 2.3% | 3.7
6 | CC(C)(C)OC(=O)CNC(=O)c1nc[nH]c1C(=O)NCC(=O)OC(C)(C)C | / | 3.4% | -1.2 | -1.3% | -22.0
1 | CCOc1ccc(S(=O)(=O)N2CCCC(C(=O)NCCN3CCOCC3)C2)cc1Cl (configuration not stated) | 4.1%[15.4 µM] | 4.5% | -2.9 | 17.8% | 1.2

Remaining list, next part
9. O=C(c1cc(COc2ccc(-n3cncn3)cc2)on1)N1CCCC1
10. Cn1nnnc1SCC(=O)Nc1cccc([N+](=O)[O-])c1
11. COc1ccc([C@H]2CC(=O)C=C(c3ccccc3C(F)(F)F)C2)cc1
12. Cn1ncc(Br)c1C(=O)Nc1ccc(F)cc1F
13. CCOC(=O)c1ccc(NC(=O)CCc2nc(-c3ccccc3)no2)cc1
14. CCCC(C)NC(=O)c1nc(-c2ccccc2)n(-c2ccccc2)n1 (configuration not stated)
15. O=C(O)C1Cc2ccccc2CN1C(=O)c1ccccc1 (configuration not stated)
16. O=C(CN1CCN(S(=O)(=O)c2ccccc2[N+](=O)[O-])CC1)Nc1ccc(N2CCOCC2)cc1

compound no.	9	10	11	12	13	14	15	16
gsp ag	?	-0.8%[15.4 µM]	/	22.1%	-18.7%	-19.1%	-36.3%[inhibitor]	-38.0%[inhibitor]
gsp antag	?	-0.3%	-0.7%	2.2%	39.8µM*	-7.0%	-13.1%	-1.3%
Menin MLL FP FL	/	2.2	/	2.7	2.6	1.7	-1.7	-0.6
Sfp inh	/	-0.4%	/	13.5%	12.4%	8.5%	12.8%	-3.4%
ClpP mod	0.7%	/	0.1%	-0.1%	3.9%	-1.4%	-1.1%	0.4%
TRPV1 PAM	/	-0.7	-4.4	-0.5	-0.1	8.3	4.7	-3.8
CtBP-E1A inh	9.6	1.8	8.9	9.5	10.5	?	-22.7	/

17. COCCNC(=O)C1CCC(CNS(=O)(=O)c2ccc(F)cc2)CC1 (configuration not stated)
18. Cc1ccc(C(c2sc3nc(C)nn3c2O)N2CCN(c3ccc(F)cc3)CC2)cc1 (configuration not stated)
19. CNc1ccc([N+](=O)[O-])cc1C(=O)O
20. O=c1[nH]c2ccc(S(=O)(=O)N3CCN(c4ccc(F)cc4)CC3)cc2o1
21. CC(C)(C)c1sc(N)nc1-c1ccccc1
22. Nc1c(C(=O)c2ccccc2)oc2ccc(Br)cc12
23. O=C(NCc1ccccc1)C1CC(=O)N(c2ccc(OCC(=O)N3CCOCC3)cc2)C1 (configuration not stated)
24. CCC(=O)N/N=c1/sc2ccccc2n1C

compound no.	17	18	19	20	21	22	23	24
gsp ag	-15.5%	6.5%	-35.4%[inhibitor]	17.0%	-8.2%	?	-7.6%[15.4 µM]	-34.5%[15.4 µM]
gsp antag	9.8%	-4.3%	-12.9%	-18.9%	-0.6%	-9.8%	6.8%	/
Menin MLL FP FL	-0.9	1.4	-2.2	-2.1	/	1.8	0.4	3.3
Sfp inh	5.2%	16.8%	9.3%	-0.8%	/	6.2%	6.6%	14.6%
ClpP mod	-0.6%	-0.1%	1.5%	0.7%	0.4%	0.8%	-19.9%	/
TRPV1 PAM	-0.6	2.2	-4.1	-10.8	/	10.6	19.0	1.4
CtBP-E1A inh	/	-2.6	5.7	7.7	40.0	24.4	0.0	24.8

25. O=C1Cc2cc(NS(=O)(=O)c3ccc([N+](=O)[O-])cc3)cc3c2N1CCC3
26. O=C(O)CC(NCc1ccco1)C(=O)OCCc1ccccc1 (configuration not stated)
27. CC(=O)NC1C(OCc2ccccc2)OC2COC(c3ccccc3)OC2C1OCC(=O)O (configuration not stated)
28. COc1ccc(/C=N/NC(=O)C(C)N(c2ccc(OC)cc2)S(C)(=O)=O)cc1 (configuration not stated)
29. CC(=O)c1ccc(NC(=O)CSC(C)C)cc1
30. CC(=O)OC(/C(O)=C(\C#N)c1nc2ccccc2[nH]1)c1ccccc1 (configuration not stated)
31. CCCCn1nnnc1SCC(=O)Nc1ccc(C)cc1
32. CC1(C)O[C@@H]2C[C@H]3[C@@H]4CCC5=CC(=O)C=C[C@]5(C)[C@@]4(F)[C@@H](O)C[C@]3(C)[C@]2(C(=O)CO)O1

compound no.	25	26	27	28	29	30	31	32
gsp ag	1.2%	4.5%	-2.6%[15.4 µM]	-23.0%	-12.3%	-53.3%[inhibitor]	-0.5%	/
gsp antag	-10.8%	-10.7%	-13.0%	67.8%[activator]	6.8%	-6.3%	-0.4%	-8.2%
Menin MLL FP FL	/	1.6	1.5	1.6	9.9	3.8	2.9	3.8
Sfp inh	/	-13.4%	-9.4%	11.3%	2.0%	11.1%	12.6%	-27.5%
ClpP mod	1.2%	-4.2%	/	-0.2%	-3.7%	-22.2%	-0.4%	0.5%
TRPV1 PAM	-1.9	/	-2.1	-0.5	23.0	-7.3	5.5	-12.9
CtBP-E1A inh	4.8	-3.2	3.0	/	?	0.8	4.1	5.4

33. CSCCC(NS(=O)(=O)c1ccccc1F)C(=O)N1CCCCCCC1 (configuration not stated)
34. CC(C)(O)C#Cc1ccc(C(=O)NC2CCCCC2)s1
35. Cc1cc(=O)[nH]c(COc2ccccc2)n1
36. COc1ccc(S(=O)(=O)NNC(=O)C2COc3ccccc3O2)cc1[N+](=O)[O-] (configuration not stated)
37. Cc1nnc(SC/C=C/c2ccccc2)n(N)c1=O
38. COc1cc(C)nc(N(Cc2ccccc2)S(=O)(=O)c2ccc(C)cc2)n1
39. CC(C)C(=O)Nc1ccc2c(c1)nc(CCN1CCCCC1)n2C
40. c1ccc(Cn2nnc3c(N4CCc5ccccc54)ncnc32)cc1

compound no.	33	34	35	36	37	38	39	40
gsp ag	8.1%[15.4 µM]	12.7%[15.4 µM]	8.4%	13.7%[15.4 µM]	-0.3%[15.4 µM]	3.1%	-0.7%	13.8%
gsp antag	-2.4%	3.3%	7.5%	-8.3%	7.4%	-34.1%	6.0%	10.1%
Menin MLL FP FL	/	-0.1	2.3	/	4.2	4.4	-1.0	0.1
Sfp inh	10.7%	14.1%	1.3%	/	9.0%	2.5%	-3.8%	-10.2%
ClpP mod	1.2%	/	-11.9%	/	-9.6%	0.9%	-2.3%	-20.7%
TRPV1 PAM	-4.7	2.2	11.1	4.4	-2.9	5.5	-9.6	17.7
CtBP-E1A inh	12.7	1.5	6.9	4.6	-0.4	/	-3.5	4.3

Of the compounds above, two contain a tert-butyl group.
6. CC(C)(C)OC(=O)CNC(=O)c1nc[nH]c1C(=O)NCC(=O)OC(C)(C)C
21. CC(C)(C)c1sc(N)nc1-c1ccccc1

compound no.	6	21
gsp ag	/	-8.2%
gsp antag	3.4%	-0.6%
Menin MLL FP FL	-1.2	/
Sfp inh	-1.3%	/
ClpP mod	1.1%	0.4%
TRPV1 PAM	21.1	/
CtBP-E1A inh	-22.0	40.0

Going on with the list:
41. CCOC(=O)N1CCN(CC(=O)Nc2sc(CC)cc2C(=O)c2ccc(OC)cc2)CC1
42. O=C(NCCCn1ccnc1)c1cc2c(ccc3ccccc32)o1
43. CCOC(=O)c1c(C)c(C(=O)NCc2ccccn2)c(C)n1C
44. CCOC(=O)C(NC(=O)CC)(Nc1sc(C)c(CC)c1C#N)C(F)(F)F (configuration not stated)
45. CC(C)(C)OC(=O)N[C@@H](C(=O)OC(C)(C)C)c1ccc2c(c1)OCO2
46. Cc1ccc(C(C)C)c(OCC(=O)NN=C2CCCC(=O)C2)c1
47. CC(Sc1ccc(S(=O)(=O)N2CCCCCC2)cn1)C(N)=O (configuration not stated)

compound no.	41	42	43	44	45	46	47
gsp ag	-1.3%[15.4 µM]	8.6%[15.4 µM]	13.5%	-2.1%[15.4 µM]	1.8%	?	-28.2%
gsp antag	-23.6%	17.6%	1.9%	0.7%	-0.4%	2.5%	9.0%
Menin MLL FP FL	0.1	-5.7	3.6	0.3	/	/	/
Sfp inh	-23.8%	15.7%	0.3%	-0.6%	/	/	/
ClpP mod	0.6%	/	-3.5%	-11.2%	-0.5%	/	4.6%
TRPV1 PAM	-9.7	29.3	-3.5	-25.6	-30.0	/	0.7
CtBP-E1A inh	-28.3	0.9	-1.8	-1.8	-1.5	-3.8	5.2
